# High-throughput results from PubChem BioAssay.
# Mtb hypoxia inh: Mtb hypoxia fluorescent reporter inhibition. M. tuberculosis hypoxia-regulated fluorescent reporter, fluorescence. fluorescence inhibition, % (no concentration beside the values). 0.1% of 300,000 active. AID 1159583;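 active = 35 to 45% if threefold the growth effect, above 45% if 1.5-fold the growth effect; inactive = the rest, general growth blockers included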;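 note: wells of about 50 µL received 100 nL stock; 0% = vehicle wells and 100% = reference inhibitor wells; whole bacteria with a GFP reporter of the hypoxia response; strong numbers were not always called active; many hits fall short of the cut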
# PrP 5UTR inh: inhibition of PrP 5' UTR reporter expression. cell-based PrP 5' UTR mRNA reporter, plate reader. inhibition, % (test concentration not listed). 0.35% of 340,000 active. AID 488862;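 active = every replicate at 50% or more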;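 note: 0 = median of the neutral control wells; tested in H4 reporter cells; numbers are from one replicate; inactives centre near -14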
# BJeLR lethal: BJeLR cell viability loss; BJeLR (HRASV12) viability, CellTiter-Glo ATP luminescence, 48 h; reference of the scale not given here; 0.17% of 300,000 active; AID 1554; inhibition, % (test concentration not listed);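 active = replicate mean above 50%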;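 note: 50 nL library stock added to about 25 µL; numbers are from one replicate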
# ugtP null kill: compounds lethal to S. aureus RN4220 ugtP deletion mutant. OD600 growth, 16 h; some inactives read as strong as hits. growth inhibition, % (no concentration beside the values). 0.54% of 330,000 active;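 active = z-score under -3 and OD600 up to 0.15 on both plates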;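 note: plate controls were untreated wells for no effect and antibiotic for full effect; wells of about 80 µL received 100 nL stock; the first replicate is given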
# Autofluor counter: counter-screen for toxin protease inhibitors: compound fluorescence; fluorescence intensity (test concentration not listed); compound autofluorescence counterscreen, microsphere flow cytometry; active compounds read high; AID 624483; 3.1% of 360,000 active;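 active = at least 3 SD above the mean of all compounds, about 16000 in these data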;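 note: 100 nL of 1 mM stock went into each well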
# RN4220 kill: kills Staphylococcus aureus RN4220 | S. aureus RN4220 growth, OD600, 16 h | inhibition, % (test concentration not listed) | 0.33% of 330,000 active | AID 1259311;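 active = z-score of -3 or lower and OD600 up to 0.18 on both plates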;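 note: plate controls were untreated cells for no effect and reference antibiotic for full effect; stock transfer was 100 nL into about 80 µL; one replicate is shown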
# Mtb hypoxia inh growth: recorded beside Mtb hypoxia inh, whose call it bears; growth inhibition, %; measured here: M. tuberculosis growth (absorbance);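 0% = vehicle and 100% = reference antibiotic; read after six days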
# Starred values were filed as active, the others as inactive; · = no result given.
Structure | Mtb hypoxia inh growth | RN4220 kill | ugtP null kill | PrP 5UTR inh | Mtb hypoxia inh | BJeLR lethal | Autofluor counter
CCN(CC)S(=O)(=O)c1ccc(C)c(NC(=O)Cn2cnc3cc([N+](=O)[O-])ccc3c2=O)c1 | 0 | 1.9 | 7 | -9 | 0 | 7 | 4592
Cc1cc(C(C)(C)C)cc(S(=O)(=O)Nc2ccc(C(=O)O)cc2)c1C | 12 | 6.7 | 7 | -22 | 9 | 3 | 4275
COc1ccc(OC)c(Nc2nc(-c3sc(NC(=O)CC(C)C)nc3C)cs2)c1 | 9 | -18 | -65 | 4 | 7 | -4 | 3770
CCOC(=O)c1c(C)[nH]c(C(=O)OCCOc2ccc(Cl)cc2)c1C | 0 | 6.6 | -6 | -10 | -10 | -1 | 2559
CC(C)(C)S(=O)(=O)c1ccc2nc3c(n2c1)CCCC3 | · | 1.7 | 7 | -32 | · | · | 3607
COC(=O)[C@]1(C)N[C@H](CN(C)C(=O)Nc2ccc(OC)cc2)[C@@H]2C(=O)N(Cc3ccccc3)C(=O)[C@@H]21 | 1 | 3.6 | 1 | -21 | 0 | · | 3706
CC(C)n1c(=O)c2c(O)cc(=O)oc2c2ccccc21 | 6 | 5.5 | 9 | -19 | -2 | 1 | 21712*
Cc1nc(-c2ccc(S(=O)(=O)N3CCN(Cc4ccccc4)CC3)s2)cs1 | -1 | -0.6 | 7 | -17 | 3 | 3 | 5981
COc1cccc(NC(=O)CSc2nc3ccccc3n2C)c1 | 10 | 2.0 | 0 | -20 | -10 | -3 | 2586
O/N=C\c1cnc(N2CCN(c3ccccc3)CC2)s1 | · | · | · | -43 | · | -11 | 3720
CN1C(=O)C2C(c3ccc(N(C)C)cc3)NN(Cc3ccccc3)C2C1=O (configuration not stated) | 12 | 0.2 | 5 | 3 | 3 | 0 | 4553
CCOC(=O)COc1ccc(S(=O)(=O)Nc2ccc3c(c2)OCCO3)cc1 | 6 | 6.9 | 9 | -35 | 11 | 3 | 7820
COc1ccc(-c2nnc3c4ccccc4c(C)nn23)cc1S(=O)(=O)N1CCN(CCO)CC1 | -5 | -0.2 | 4 | -15 | 7 | 1 | 5920
CC(C)(C)NC(=O)COc1ccc2oc3c(c2c1)CCCC3 | 2 | 3.8 | 15 | 4 | 19 | 1 | 4242
Cc1c(NS(=O)(=O)c2ccc(C(=O)NCc3ccccc3)cc2)c(=O)n(-c2ccccc2)n1C | 9 | 6.6 | 5 | 56* | 10 | -5 | 3423
O=C(CN1CCN(c2ccccc2)CC1)Nc1ccc2c(c1)CCC2 | 3 | 5.5 | 2 | -6 | 0 | -1 | 2494
CCN(C(=O)c1cc2c(C)nc3ccccc3c2o1)c1cc(Cl)ccc1OC | 5 | -8.6 | -5 | -14 | 9 | 2 | 5307
COC(=O)c1ccccc1NC(=O)c1cc(-c2cccs2)on1 | 5 | 8.0 | 13 | -21 | 5 | -1 | 20518*
CC(C)[C@H](NC(=O)C1CC(=O)N(c2ccc3c(c2)OCO3)C1)C(=O)NC1CCCC1 (some centres not stated) | -1 | 1.2 | 5 | -29 | 4 | 9 | 5488
O=C(CSc1ccc2nnc(-c3cccc(F)c3)n2n1)NCc1ccco1 | 5 | 2.2 | 2 | -2 | 3 | -2 | 11485
COc1cc(/C=C/C(=O)c2c(O)cc(C)oc2=O)cc(OC)c1O | 7 | 7.2 | 5 | -10 | 4 | -4 | 6797
COCCCNCc1cc(C)n(-c2cc(S(=O)(=O)N3CCOCC3)ccc2N2CCCC2)c1C | 2 | -2.9 | 10 | · | 6 | · | 6059
O=C(CSc1ncn[nH]1)NCCC(c1ccccc1)c1ccccc1 | · | -1.6 | 12 | -23 | · | -4 | 2373
Cc1ccc(NC(=O)Nc2ccc(Cl)c(Cl)c2)nc1 | 4 | -1.9 | -10 | -71 | 9 | 6 | 3203
CCc1c(C)nc2cc(-c3ccc(Cl)cc3)[nH]n2c1=O | · | · | · | -47 | · | 1 | 3546
CCOC(=O)C1=C(C)NC(=O)NC1/C=C/c1ccccc1 (configuration not stated) | 2 | 5.4 | 3 | -18 | 5 | -3 | 10681
CN1CCN(Cc2cc(C(C)(C)C)c(O)c(C(C)(C)C)c2)CC1 | 9 | 4.0 | -1 | -11 | 9 | -7 | 3903
CC(OC(=O)c1ccncc1)C(=O)NC1CCCC1 (configuration not stated) | 10 | -0.2 | 7 | -13 | 1 | 0 | 4248
O=S(=O)(Nc1ccc(-n2cccc2)cc1)c1ccc(F)cc1 | 1 | 10 | -15 | 9 | 8 | -1 | 4715
N#Cc1c2n(c3c(=O)n(Cc4ccccc4Cl)cnc13)CCCCC2 | · | 3.8 | 15 | 3 | · | · | 2794
CCCN1CCC(NC(=S)Nc2ccc([N+](=O)[O-])cc2)CC1 | 9 | 0.7 | 3 | -10 | 8 | 0 | 6033
NS(=O)(=O)c1ccc(NC(=O)c2ccccc2Cl)cc1 | 6 | -3.1 | 10 | -29 | 4 | 6 | 2979
CSCCC(NC(=O)c1ccccc1Br)C(=O)NNC(=O)c1ccco1 (configuration not stated) | -2 | 0.5 | 1 | -16 | -2 | · | 4788
Cc1ccc(NC(=O)Cn2cccc2)cc1 | 1 | -1.3 | 3 | -10 | 11 | 4 | 2698
O=C(NCc1ccc(OC(F)(F)F)cc1)C1CC(c2ccc(C(F)(F)F)cc2)=NO1 (configuration not stated) | 13 | -3.3 | -18 | -15 | 4 | 5 | 3877
Cc1ccc(S(=O)(=O)N2CCOCC2)cc1NC(=O)COC(=O)/C=C/c1ccc(F)cc1 | 6 | 2.5 | -3 | -17 | 2 | · | 3956
Cc1ccc(C2=NN(C(=O)c3ccco3)C(O)(C(F)(F)F)C2)cc1 (configuration not stated) | -10 | 21 | -8 | -13 | -9 | 1 | 4586
CCn1c2ccccc2c2cc(C=NNC(=O)c3cc(O)cc(O)c3)ccc21 | 8 | 3.5 | -8 | · | 3 | · | ·
COCCC(=O)N1CCCC(C(=O)c2ccc(Oc3ccccc3)cc2)C1 (configuration not stated) | -8 | -0.3 | 4 | -28 | 3 | -2 | 2290
CCOCc1c(C(=O)NCC(c2ccco2)N2CCCC2)oc2ccccc12 (configuration not stated) | 8 | 4.5 | 7 | -14 | -1 | · | 3476
Cc1csc2c(=O)sc(NC(=O)c3cccs3)nc12 | 5 | 5.9 | -1 | -13 | 4 | -9 | 3644
CN(C)c1cc[n+](CC(=O)N2c3ccccc3Sc3ccccc32)cc1 | 14 | 4.1 | -2 | -30 | 0 | · | 4033
Cc1cccc(-c2cc3nc(-c4ccccc4)cc(=O)n3[nH]2)c1 | 8 | 2.0 | -9 | -22 | 8 | 3 | 2855
O=C(NCCCN1CCOCC1)c1cnccn1 | 1 | -1.3 | 34 | -29 | 2 | 5 | 5693
CCOC(=O)Nc1ccccc1N1C(=O)c2ccccc2C1=O | 4 | 8.4 | 9 | -26 | 8 | 4 | 3553
Cn1cc(Br)c(C(=O)NN2C(=O)C3C(C2=O)C2C=CC3C23CC3)n1 (configuration not stated) | 0 | 4.8 | -4 | -32 | 9 | -3 | 4516
COc1ccc(CCNC(=O)C2CCN(S(=O)(=O)c3ccc(F)cc3)CC2)cc1 | 1 | 5.4 | 9 | 2 | -8 | -1 | ·
COc1cc(C(C)=O)ccc1OCC(=O)Nc1ccc(Cl)c(S(=O)(=O)N2CCOCC2)c1 | 2 | 4.5 | -2 | -8 | 9 | · | 3382
CCOc1cccc(-c2c(C(=O)N/N=C/c3ccoc3)nnn2-c2nonc2N)c1 | · | · | · | -13 | · | -11 | 4122
CCc1ccc(C(=O)NCC2COc3ccccc3O2)o1 (configuration not stated) | 20 | 9.8 | -10 | -17 | 16 | -4 | 10246
OCCC1CN(Cc2cnc(-c3ccc(Cl)cc3)nc2)CCN1C1CCCCC1 (configuration not stated) | 12 | 0.5 | 7 | -13 | 13 | 10 | 5085
Cc1cccc(Nc2ccc3nonc3c2[N+](=O)[O-])c1C | 6 | 3.0 | -2 | · | 3 | -3 | 3755
Cc1ccc(S(=O)(=O)N(C)CC(=O)NCCc2c[nH]c3ccccc23)cc1 | 4 | 5.6 | 12 | -10 | -12 | 2 | 6063
CC(=O)c1ccc(OCCCC(=O)NC2CCCc3ccccc32)cc1 (configuration not stated) | -2 | 3.0 | 9 | -14 | -2 | -2 | 7334
COc1cccc(CN(C)C(=O)c2csc3c2CCCC3)c1OC | 13 | 23 | -4 | -20 | 15 | 4 | 4464
CCOC(=O)c1sc(N)nc1C(C)C | · | 3.7 | -1 | -29 | · | -2 | 2662
Cc1cc(C(=O)NCC(=O)Nc2c(C)cccc2C)c(C)o1 | -8 | 4.6 | -2 | 12 | -1 | -6 | 4660
CCOC(=O)CSc1ncnc2c1cnn2-c1ccc(C)cc1C | 7 | 9.2 | 5 | -11 | 0 | -9 | 3306
Cc1c(Br)c([N+](=O)[O-])nn1CC(=O)NCc1ccccn1 | 6 | 1.3 | 7 | -15 | -2 | -8 | 15982
Cc1nc2ccc(N)cc2c(=O)n1Cc1ccc(Cl)cc1 | · | 10 | 10 | -8 | · | 4 | 3630

# Whole records from above:
# `CCOc1cccc(-c2c(C(=O)N/N=C/c3ccoc3)nnn2-c2nonc2N)c1` is listed as Mtb hypoxia inh growth = ·; RN4220 kill = ·; ugtP null kill = ·; PrP 5UTR inh = -13; Mtb hypoxia inh = ·; BJeLR lethal = -11; Autofluor counter = 4122
# `COCCC(=O)N1CCCC(C(=O)c2ccc(Oc3ccccc3)cc2)C1` (configuration not stated) is listed as Mtb hypoxia inh growth = -8; RN4220 kill = -0.3; ugtP null kill = 4; PrP 5UTR inh = -28; Mtb hypoxia inh = 3; BJeLR lethal = -2; Autofluor counter = 2290

# Remaining list, next part
Structure | Mtb hypoxia inh growth | RN4220 kill | ugtP null kill | PrP 5UTR inh | Mtb hypoxia inh | BJeLR lethal | Autofluor counter
O=C(N/N=C\c1ccc(-c2ccccc2[N+](=O)[O-])o1)C1COc2cc3ccccc3cc2O1 (configuration not stated) | · | · | · | -19 | · | -6 | 4790
Cc1ccc(C(=O)OCC(=O)NC(=O)c2cccn2C)cc1[N+](=O)[O-] | 8 | 6.2 | -2 | -17 | 17 | -9 | 4687
Cc1ccc(C)c(S(=O)(=O)Nc2ccc(C(=O)NCCCN3CCOCC3)cc2)c1 | -3 | 1.7 | 7 | -102 | 7 | 3 | 5760
Cc1cc(C=C2NC(=S)NC2=O)c(C)n1-c1cccnc1 | -2 | 2.3 | 0 | · | 4 | · | ·
O=C(NCC(c1ccco1)N1CCN(c2ccccc2)CC1)c1ccc2c(c1)OCO2 (configuration not stated) | 3 | -0.9 | 0 | -19 | 9 | -5 | 4933
Cc1cc(CC(C)C)n(-c2nc3ccccc3c(=O)n2OCC(N)=O)n1 | · | 5.2 | -14 | -8 | · | 3 | 4378
Cc1cc(CNC(=O)c2cccc(OC3CCN(S(=O)(=O)N(C)C)CC3)c2)on1 | 9 | 0.7 | 0 | -39 | -8 | 0 | 6002
CCOC(=O)NC1(C(F)(F)F)C(=O)N(Cc2ccccc2)C2=C1C(=O)CC(C)(C)C2 (configuration not stated) | 11 | 6.1 | -11 | -26 | 15 | -4 | 25964*

# An excerpt of these results, with values under each structure.
# Fields – Mtb hypoxia inh growth	RN4220 kill	ugtP null kill	PrP 5UTR inh	Mtb hypoxia inh	BJeLR lethal	Autofluor counter
- Cc1cc(C=C2NC(=S)NC2=O)c(C)n1-c1cccnc1
  -2	2.3	0	·	4	·	·
- O=C(N/N=C\c1ccc(-c2ccccc2[N+](=O)[O-])o1)C1COc2cc3ccccc3cc2O1 (configuration not stated)
  ·	·	·	-19	·	-6	4790
- Cc1cc(CC(C)C)n(-c2nc3ccccc3c(=O)n2OCC(N)=O)n1
  ·	5.2	-14	-8	·	3	4378
- Cc1ccc(C(=O)OCC(=O)NC(=O)c2cccn2C)cc1[N+](=O)[O-]
  8	6.2	-2	-17	17	-9	4687

# Rows were taken by chance; 4% or so of the library scored in one or more.
